# Assay outcomes: PubChem BioAssay, Broad Institute
# Vaccinia inh – blocks a specific stage of Vaccinia orthopoxvirus infection | activity change (mCherry), % (concentration not given with the values) | Vaccinia-infected cells, mCherry/Venus stage reporter fluorescence; hits give low values; some inactives read as strong as hits | 0.01% of 89,000 active;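 active means mCherry past -33% and 40 or more points under the early reporter, replicates agreeing; inconclusive means past -33% without that gap or agreement; tested in A549 cells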;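 further: scaled between vehicle wells and reference inhibitor wells; 23 nL library stock went into each well; one replicate is shown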
# Vaccinia inh Venus – also measured in Vaccinia inh; calls as there; activity change (Venus), %; measured here: Venus reporter, other viral stage;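 negative = less Venus signal; first of two replicates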
# * marks the source's active call; other numbers are inactive results; ? = inconclusive; · = no result given. Some of the compounds tested; the hit share may differ from the screen's.
# A first look, seven compounds:
SMILES,Vaccinia inh,Vaccinia inh Venus
C[C@@H]1CN([C@@H](C)CO)C(=O)c2cc(-c3ccc(C(=O)N(C)C)cc3)cnc2O[C@H]1CN(C)C(=O)CN(C)C,23,12
C[C@@H]1CN([C@@H](C)CO)C(=O)Cc2cc(NC(=O)CCC(F)(F)F)ccc2O[C@@H]1CN(C)CC1CCCCC1,-15,-11
COCC#Cc1ccc2c(c1)O[C@@H](CN(C)C(=O)CC1CC1)[C@H](C)CN([C@@H](C)CO)S2(=O)=O,11,7
COc1cccc(-c2ccc([C@@H]3[C@H](C#N)N(C(=O)c4ccccn4)[C@H]3CO)cc2)c1,-31,-25
C[C@H]1CN([C@@H](C)CO)C(=O)c2cccc(NC(=O)c3cnccn3)c2O[C@@H]1CN(C)C(=O)Nc1ccc(C(F)(F)F)cc1,7,-1
COc1ccc(C(=O)N2C[C@H]3[C@@H](c4ccccc42)[C@@H](CO)N3Cc2ccccc2)cc1,4,3
O=C(c1ccccc1F)N1C[C@@H]2[C@H](c3ccccc31)[C@H](CO)N2C(=O)Nc1ccccc1,0,1

# All compounds of this part, repeating the preview:
SMILES,Vaccinia inh,Vaccinia inh Venus
C[C@@H]1CN([C@@H](C)CO)C(=O)c2cc(-c3ccc(C(=O)N(C)C)cc3)cnc2O[C@H]1CN(C)C(=O)CN(C)C,23,12
C[C@@H]1CN([C@@H](C)CO)C(=O)Cc2cc(NC(=O)CCC(F)(F)F)ccc2O[C@@H]1CN(C)CC1CCCCC1,-15,-11
COCC#Cc1ccc2c(c1)O[C@@H](CN(C)C(=O)CC1CC1)[C@H](C)CN([C@@H](C)CO)S2(=O)=O,11,7
COc1cccc(-c2ccc([C@@H]3[C@H](C#N)N(C(=O)c4ccccn4)[C@H]3CO)cc2)c1,-31,-25
C[C@H]1CN([C@@H](C)CO)C(=O)c2cccc(NC(=O)c3cnccn3)c2O[C@@H]1CN(C)C(=O)Nc1ccc(C(F)(F)F)cc1,7,-1
COc1ccc(C(=O)N2C[C@H]3[C@@H](c4ccccc42)[C@@H](CO)N3Cc2ccccc2)cc1,4,3
O=C(c1ccccc1F)N1C[C@@H]2[C@H](c3ccccc31)[C@H](CO)N2C(=O)Nc1ccccc1,0,1
CN(C)CC(=O)N[C@H]1C=C[C@H](CC(=O)NCc2ccc(Cl)cc2)O[C@H]1CO,10,13
C[C@H]1CN([C@@H](C)CO)C(=O)Cc2cc(NC(=O)C3CC3)ccc2O[C@@H]1CN(C)C,17,3
CO[C@H]1CN(C)C(=O)c2cc(NC(=O)Nc3ccccc3F)ccc2OC[C@@H](C)N(CC2CC2)C[C@@H]1C,-24,-16
C[C@@H]1CCCCO[C@@H](CN(C)C)[C@@H](C)CN([C@H](C)CO)C(=O)c2cc(NC(=O)Nc3ccccc3)ccc2O1,-12,0
C[C@H]1CN([C@@H](C)CO)C(=O)Cc2cc(NC(=O)CCCN(C)C)ccc2O[C@H]1CN(C)CC1CCCCC1,1,-3
C[C@@H]1CN([C@@H](C)CO)C(=O)c2cc(-c3cccnc3)cnc2O[C@@H]1CN(C)C(=O)c1ccccc1F,34,21
Cc1ccc(S(=O)(=O)N(C)C[C@@H]2Oc3c(NC(=O)Nc4ccc(C(F)(F)F)cc4)cccc3C(=O)N([C@@H](C)CO)C[C@@H]2C)cc1,-25,-4
COc1ccccc1-c1cccc(-c2nc(C(=O)N3CCN(C)CC3)cc3c2[C@@H](CCO)N([S@](=O)C(C)(C)C)C3)c1,-1,7
C[C@H]1CN([C@@H](C)CO)C(=O)c2cccc(NS(=O)(=O)c3cn(C)cn3)c2O[C@@H]1CN(C)Cc1ccc(Oc2ccccc2)cc1,13,5
C[C@H](CO)N1C[C@H](C)[C@@H](CN(C)Cc2cccnc2)Oc2ncc(-c3cccc(F)c3)cc2C1=O,13,-3
C[C@@H]1CN([C@@H](C)CO)C(=O)c2cc(NC(=O)C3CCCCC3)ccc2O[C@@H]1CN(C)S(=O)(=O)c1ccc(F)cc1,-11,-18
CCC(=O)N1[C@@H]2c3ccc(C4=CCCC4)c(=O)n3C[C@@H]2[C@@H](CO)[C@@H]1C(=O)NC1CCC1,13,14
C[C@@H]1CCCCO[C@H](CN(C)C(=O)CCCN(C)C)[C@@H](C)CN([C@@H](C)CO)C(=O)c2cc(NC(=O)CCC(F)(F)F)ccc2O1,16,5
C[C@@H]1CN([C@@H](C)CO)C(=O)c2cccc(NC(=O)CCCCCC(=O)Nc3ccccc3N)c2O[C@@H]1CN(C)Cc1ccccc1,-16,-16
COc1ccc(S(=O)(=O)N(C)C[C@H]2Oc3c(NC(=O)Nc4ccc(C(F)(F)F)cc4)cccc3C(=O)N([C@@H](C)CO)C[C@@H]2C)cc1,?,·
C[C@H](O)C#Cc1ccc([C@@H]2[C@@H](CO)N3CCCCN(CC4CC4)C[C@@H]23)cc1,11,1
CC(=O)N(C)C[C@H]1Oc2ncc(C#CCC3CCCC3)cc2C(=O)N([C@H](C)CO)C[C@@H]1C,12,8
O=C(c1cccnc1)N1CC(=O)N2[C@@H](CO)[C@H](c3ccc(-c4cccnc4)cc3)[C@@H]2C1,7,3
Cc1noc(C)c1NC(=O)Nc1ccc2c(c1)C(=O)N([C@@H](C)CO)C[C@H](C)[C@H](CN(C)C(=O)C1CCCCC1)OCCCC[C@@H](C)O2,24,8
C[C@@H]1CN([C@H](C)CO)C(=O)c2cc(NS(C)(=O)=O)ccc2O[C@H]1CN(C)CC1CCCCC1,-29,-27
O=C(C[C@H]1CC[C@H]2[C@@H](COC[C@@H](O)CN2Cc2ccc(F)cc2)O1)NCc1ccccc1Cl,-29,-26
C[C@@H]1CCCCO[C@H](CN(C)C)[C@H](C)CN([C@@H](C)CO)C(=O)c2cc(NC(=O)CCC(F)(F)F)ccc2O1,2,2
Cc1noc(C)c1S(=O)(=O)Nc1ccc2c(c1)CC(=O)N([C@H](C)CO)C[C@@H](C)[C@@H](CN(C)Cc1ccc(C(=O)Nc3ccccc3N)cc1)O2,11,11
C/C=C/c1ccc([C@H]2[C@@H](CO)N3C(=O)CN(Cc4ccc(C(=O)OC)cc4)C[C@@H]23)cc1,18,9
COc1ccc(S(=O)(=O)N(C)C[C@@H]2OCCCC[C@@H](C)Oc3ccc(NC(=O)c4ccncc4)cc3C(=O)N([C@@H](C)CO)C[C@H]2C)cc1,-8,-5
N#C[C@H]1N[C@@H](CO)[C@@H]1c1ccc(C#Cc2ccccc2F)cc1,4,2
O=C(NC1CCC1)[C@@H]1[C@@H](CO)[C@@H]2Cn3c(ccc(-c4ccccc4)c3=O)[C@H]1N2,6,3
C[C@@H]1CN([C@@H](C)CO)C(=O)c2cccc(NS(=O)(=O)c3cn(C)cn3)c2O[C@@H]1CN(C)Cc1ccc(Oc2ccccc2)cc1,5,2
COc1cccc(-c2ccc3c(c2)[C@@H]2[C@@H](CCN2C(=O)Nc2ccccc2OC)[C@@H](CO)N3C)c1,-9,-10
C[C@H]1CN([C@@H](C)CO)C(=O)c2cccc(NC(=O)Nc3cccc4ccccc34)c2O[C@H]1CN(C)CC1CCCCC1,-29,-21
C[C@H](O)C#Cc1ccc2c(c1)O[C@@H](CN(C)Cc1cncnc1)[C@H](C)CN([C@H](C)CO)S2(=O)=O,5,-2
C[C@H](CO)N1C[C@H](C)[C@@H](CN(C)S(=O)(=O)c2ccc(Cl)cc2)Oc2c(NS(=O)(=O)c3cn(C)cn3)cccc2C1=O,?,·
Cc1noc(C)c1S(=O)(=O)Nc1cccc2c1O[C@H](CN(C)Cc1ccc(-c3ccccc3)cc1)[C@H](C)CN([C@@H](C)CO)C2=O,?,·
COc1ccc(S(=O)(=O)Nc2ccc3c(c2)C(=O)N([C@H](C)CO)C[C@@H](C)[C@H](CN(C)C)O3)cc1,14,9
C[C@@H]1CN([C@@H](C)CO)S(=O)(=O)c2ccc(-c3cccnc3)cc2O[C@H]1CN(C)Cc1ccncc1,-6,-5
C[C@@H]1CN([C@H](C)CO)C(=O)c2cc(NS(=O)(=O)c3ccccc3)ccc2O[C@@H](C)CCCCO[C@@H]1CN(C)S(=O)(=O)c1cccs1,-32,-12
C[C@H]1CN([C@@H](C)CO)C(=O)c2cc(NC(=O)Cc3ccccc3)ccc2O[C@@H]1CN(C)S(=O)(=O)c1ccc(F)cc1,-3,-2
CN1CCN(C(=O)c2cc3c(c(-c4cccc(Br)c4)n2)[C@H](CCO)N([S@@](=O)C(C)(C)C)C3)CC1,5,10
C[C@@H]1CN([C@H](C)CO)C(=O)Cc2cc(NC(=O)Nc3ccc(F)cc3)ccc2O[C@H]1CN(C)S(=O)(=O)c1ccccc1,10,14
CN(C)C(=O)c1cccc(-c2ccc([C@@H]3[C@@H](CO)N4CCCCN(CC5CCOCC5)C[C@H]34)cc2)c1,15,2
Cc1noc(C)c1NC(=O)Nc1ccc2c(c1)C(=O)N([C@H](C)CO)C[C@@H](C)[C@@H](CN(C)C(=O)NC1CCCCC1)OCCCC[C@@H](C)O2,11,2

# A different layout for some results above.
# Order of results: Vaccinia inh, Vaccinia inh Venus
> C[C@@H]1CN([C@H](C)CO)C(=O)c2cc(NS(=O)(=O)c3ccccc3)ccc2O[C@@H](C)CCCCO[C@@H]1CN(C)S(=O)(=O)c1cccs1
→ -32, -12
> C[C@H]1CN([C@@H](C)CO)C(=O)c2cc(NC(=O)Cc3ccccc3)ccc2O[C@@H]1CN(C)S(=O)(=O)c1ccc(F)cc1
→ -3, -2

# Next section
SMILES,Vaccinia inh,Vaccinia inh Venus
COc1ccc2c3c([nH]c2c1)[C@@H](CO)N(Cc1ccncc1)CC31CN(C(=O)Cc2ccncc2)C1,3,3
CC(C)c1cn(CC[C@H]2CC[C@@H](NC(=O)C3CCOCC3)[C@@H](CO)O2)nn1,1,0
COc1cccc(S(=O)(=O)N(C)C[C@@H]2Oc3ncc(C#CC(C)C)cc3C(=O)N([C@H](C)CO)C[C@H]2C)c1,1,-13
COc1ccc(S(=O)(=O)N(C)C[C@@H]2Oc3ncc(C#Cc4ccc(F)cc4)cc3C(=O)N([C@H](C)CO)C[C@@H]2C)cc1,7,4
Cc1noc(C)c1NC(=O)N[C@@H]1C=C[C@@H](CC(=O)N2CCCCC2)O[C@H]1CO,13,9
O=C(C[C@@H]1CC[C@@H]2[C@H](COC[C@H](O)CN2S(=O)(=O)c2ccc(F)cc2)O1)NCCN1CCCCC1,1,3
COc1ccc(S(=O)(=O)N(C)C[C@H]2Oc3cc(C#CC4CCCC4)ccc3S(=O)(=O)N([C@@H](C)CO)C[C@H]2C)cc1,?,·
CS(=O)(=O)Nc1ccc2c(c1)[C@@H]1C[C@H](CC(=O)NCc3ccccn3)O[C@@H](CO)[C@@H]1O2,5,0
O=C1NCC(=O)N2[C@@H]1C[C@@H](C(=O)NCc1ccc(F)cc1)[C@H]2c1cccc(OCCO)c1,20,15
O=C(Nc1ccccc1F)N1C[C@H]2[C@@H](c3ccccc31)[C@H](CO)N2C(=O)C1CCOCC1,11,9
COCC(=O)Nc1ccc2c(c1)C(=O)N(C)C[C@H](OC)[C@@H](C)CN(C(=O)Cc1ccccn1)[C@H](C)CO2,3,16
C[C@@H]1CN([C@@H](C)CO)C(=O)c2cccc(NS(C)(=O)=O)c2O[C@@H]1CN(C)C(=O)Nc1ccc(F)cc1,11,9
C[C@@H]1CCCCO[C@@H](CN(C)C(=O)CCCN(C)C)[C@H](C)CN([C@H](C)CO)C(=O)c2cc(NC(=O)CCC(F)(F)F)ccc2O1,20,5
COc1ccccc1CNC(=O)C[C@H]1CC[C@H]2[C@@H](COC[C@H](O)CN2C(=O)Nc2ccc(Cl)cc2)O1,-34,-22
COc1ccc(S(=O)(=O)Nc2ccc3c(c2)C(=O)N([C@H](C)CO)C[C@H](C)[C@@H](CN(C)C(=O)NC2CCCCC2)OCCCC[C@@H](C)O3)cc1,15,10
COc1ccc(S(=O)(=O)Nc2ccc3c(c2)C(=O)N([C@@H](C)CO)C[C@H](C)[C@@H](CN(C)Cc2ccncc2)O3)cc1,27,11
C[C@H]1CN([C@@H](C)CO)C(=O)Cc2cc(NC(=O)c3ccncc3)ccc2O[C@@H]1CN(C)C,10,2
C[C@H](NC(=O)C[C@H]1CC[C@@H](NC(=O)C2CC2)[C@H](CO)O1)c1ccccc1,5,5
C[C@@H]1CN([C@@H](C)CO)S(=O)(=O)c2ccc(C#CC3CC3)cc2O[C@H]1CN(C)Cc1cccc(F)c1,?,·
Cc1noc(C)c1S(=O)(=O)Nc1ccc2c(c1)C(=O)N([C@H](C)CO)C[C@@H](C)[C@@H](CN(C)S(=O)(=O)c1ccc(Cl)cc1)OCCCC[C@H](C)O2,?,·
O=C(Cc1ccncc1)Nc1ccc2c(c1)[C@H]1C[C@H](CC(=O)N3CCCCC3)O[C@@H](CO)[C@H]1O2,20,16
Cc1noc(C)c1NC(=O)Nc1ccc2c(c1)C(=O)N([C@H](C)CO)C[C@H](C)[C@H](CN(C)S(=O)(=O)c1cccs1)OCCCC[C@@H](C)O2,17,15
C[C@@H]1CN([C@H](C)CO)C(=O)c2cc(N(C)C)ccc2O[C@@H](C)CCCCO[C@H]1CN(C)S(=O)(=O)c1ccc(F)cc1,-1,-5
CCC(=O)Nc1ccc2c(c1)C(=O)N(C)C[C@@H](OC)[C@H](C)CN(Cc1ccccc1OC)[C@@H](C)CO2,-3,-2
CC(C)[C@@H](C)NC(=O)N(C)C[C@@H]1OCc2ccccc2-c2c(n(C)c3ccccc23)C(=O)N([C@H](C)CO)C[C@@H]1C,3,2
COc1ccc(CN(C)C[C@H]2OCCCC[C@H](C)Oc3ccc(NC(=O)CCC(F)(F)F)cc3C(=O)N([C@@H](C)CO)C[C@H]2C)cc1,-22,-19
OC[C@@H]1[C@@H](c2ccc(C#CC3CC3)cc2)[C@H]2CN(CCC(F)(F)F)CCCCN12,?,·
COCC(=O)N(C)C[C@H]1Oc2cc(C#CCN(C)C)ccc2S(=O)(=O)N([C@H](C)CO)C[C@@H]1C,11,7
